# PrP 5UTR inh = suppresses PrP 5' UTR mRNA reporter expression | cell-based PrP 5' UTR mRNA reporter, plate reader | inhibition, % (no concentration beside the values) | 340,000 tested, 0.35% active;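 active = every replicate at 50% or more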;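 note: 0 = median of the neutral control wells; tested in H4 reporter cells; numbers are from one replicate; inactives centre near -14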
# Autofluor counter = counter-screen for toxin protease inhibitors: compound fluorescence; compound autofluorescence counterscreen, microsphere flow cytometry; active compounds read high; fluorescence intensity (concentration not given with the values); 360,000 tested, 3.1% active;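 active = at least 3 SD above the mean of all compounds, about 16000 in these data; inconclusive = too few beads counted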;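 note: 100 nL of 1 mM stock went into each well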
# ugtP null kill = kills S. aureus RN4220 lacking UgtP; S. aureus RN4220 ugtP deletion, OD600 growth, 16 h; some inactives read as strong as hits; 330,000 tested, 0.54% active; growth inhibition, % (concentration not given with the values);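 active = z-score under -3 and OD600 up to 0.15 on both plates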;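 note: plate controls were untreated wells for no effect and antibiotic for full effect; wells of about 80 µL received 100 nL stock; the first replicate is given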
# BJeLR lethal = BJeLR cell viability loss | BJeLR (HRASV12) viability, CellTiter-Glo ATP luminescence, 48 h; reference of the scale not given here | inhibition, % (no concentration beside the values) | 300,000 tested, 0.17% active | AID 1554;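 active = replicate mean above 50%; inconclusive = above 50% but judged a plate artefact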;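 note: 50 nL library stock added to about 25 µL; numbers are from one replicate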
# Mtb hypoxia inh = reduces hypoxia-regulated biosensor signal in M. tuberculosis; M. tuberculosis hypoxia-regulated fluorescent reporter, fluorescence; fluorescence inhibition, % (test concentration not listed); 300,000 tested, 0.1% active;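 active = 35 to 45% if threefold the growth effect, above 45% if 1.5-fold the growth effect; inactive = the rest, general growth blockers included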;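 note: wells of about 50 µL received 100 nL stock; 0% = vehicle wells and 100% = reference inhibitor wells; whole bacteria with a GFP reporter of the hypoxia response; strong numbers were not always called active; many hits fall short of the cut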
# Sa RN4220 lethal = S. aureus RN4220 growth inhibition | OD600, 16 h | inhibition, % (no concentration beside the values) | 330,000 tested, 0.33% active;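 active = z-score of -3 or lower and OD600 up to 0.18 on both plates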;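 note: plate controls were untreated cells for no effect and reference antibiotic for full effect; stock transfer was 100 nL into about 80 µL; one replicate is shown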
# Mtb hypoxia inh growth = second read-out of Mtb hypoxia inh, no call of its own (marks repeat the call); growth inhibition, %; measured here: M. tuberculosis growth (absorbance);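 0% = vehicle and 100% = reference antibiotic; read after six days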
# * hit, by the source's call; ? = inconclusive; · = no result given.
SMILES,PrP 5UTR inh,Autofluor counter,ugtP null kill,BJeLR lethal,Mtb hypoxia inh,Mtb hypoxia inh growth,Sa RN4220 lethal
COc1ccc(OCC(=O)NC2CCCN(Cc3ccc(Cl)cc3)C2)cc1 (centres undefined),-11.0,6862,-3.2,-2.9,-3.8,19.6,0.3
CC(C)N(Cc1ccccc1)C(=O)COC(=O)C1CCN(c2ccc(C(F)(F)F)cn2)CC1,-15.8,?,8.4,·,8.7,5.1,-5.2
Cc1ccc(C(=O)NC(C)c2ccccc2)o1 (centres undefined),-39.0,22061*,-10.0,5.7,·,·,10.3
Cc1ccc(C(=O)OCC(=O)NCc2cccs2)cc1S(=O)(=O)N1CCOCC1,14.7,3906,-5.3,-18.0,0.7,0.2,0.2
O=C(COc1cccc(NC(=O)c2cccc([N+](=O)[O-])c2)c1)c1ccc(Br)cc1,-4.1,2643,-5.0,-4.0,11.9,9.4,19.2
Cc1nnc(SCC(=O)NCc2ccccc2Cl)[nH]c1=O,-14.5,2961,6.4,·,3.9,3.4,2.6
CN(c1ccccc1)S(=O)(=O)c1cccc(NC(=O)c2cncc(Br)c2)c1,11.7,4782,3.5,5.1,7.3,3.4,3.1
CC(=O)Nc1ccc(S(=O)(=O)NC(C)C(=O)NCCc2ccc(F)cc2)cc1 (centres undefined),-22.9,3896,5.3,5.1,1.2,-2.0,2.9
O=C(CN1C(=O)NC2(CCOc3ccccc32)C1=O)Nc1ccc(F)c(F)c1F (centres undefined),18.3,2451,-8.1,-1.7,0.8,6.4,-4.1
C=CCN(CC=C)C(=O)c1ccc(OC2CCN(C(C)=O)CC2)c(OC)c1,-1.7,4188,1.6,8.7,-6.8,10.0,2.1
COc1ccc2[nH]cc(CCNC(=O)CS(=O)(=O)Cc3ccccc3)c2c1,-16.0,3648,0.3,9.8,2.3,2.1,1.4
CCn1nc(NS(=O)(=O)c2ccccc2[N+](=O)[O-])c2cc3cccc(C)c3nc21,-26.5,7341,-6.5,9.2,13.4,5.2,21.6
CCC(Sc1nc(N)cc(=O)[nH]1)C(=O)NC(C(=O)OC)c1ccccc1 (centres undefined),·,·,6.5,-6.5,17.7,22.1,3.2
Cc1cccn2cc(-c3ccc(F)cc3)cc12,-23.6,2556,4.1,7.2,3.2,9.1,6.7
O=C(CCSc1nnc(-c2ccco2)o1)Nc1ccccc1,-27.1,9201,2.4,-6.5,0.7,-2.3,1.5
CCCN(CC(=O)Nc1ccc(Cl)cc1Cl)Cc1cc(=O)n2ccsc2n1,-7.5,4269,3.8,11.3,6.9,2.9,-13.9
COc1ccc(NC(=O)CSCC(=O)NC2(C)CCS(=O)(=O)C2)cc1 (centres undefined),-11.1,5836,-6.0,7.5,0.5,7.8,-1.7
Cc1ccc(CCNC(=O)c2cc(-c3ccncc3)nc3ccccc23)cc1,-13.9,5159,0.7,3.7,3.0,-9.1,4.3
CC(=NNC(=O)Cn1nc(C)c([N+](=O)[O-])c1C)c1ccc(Cl)s1,·,·,-3.8,·,7.9,13.0,1.9
CC(C)N(C(=O)COC(=O)c1ccc(O)cc1)C(C)C,-35.4,2772,1.4,5.0,·,·,2.3
Cc1ccccc1OCC(=O)Nc1nnc(C2CCCC2)s1,-4.1,5339,3.7,-0.6,-0.3,1.4,-0.1
COc1ccc(OC)c(S(=O)(=O)Nc2cc(Cl)cc(Cl)c2)c1,10.8,4308,-19.9,-2.6,1.0,3.1,7.3
COCc1nnc(NC(=O)c2cc(Cl)ccc2OC)s1,-38.0,23665*,0.7,6.6,-2.1,7.6,-4.0
CC(C)c1nnc(NC(=O)CCC(=O)NC2CCCCCCC2)s1,·,8032,0.4,-18.2,2.0,2.1,2.5
C=C(C)CN(CC)c1nc(N)c(C#N)c(CC#N)c1C#N,-19.7,20294*,1.3,1.6,5.4,15.1,3.6
O=C(c1ccc2c(=O)n3c(nc2c1)CCCCC3)N1CCc2ccccc21,-22.1,4687,2.1,-5.5,3.6,1.6,2.3
Cc1cccc(S(=O)(=O)N2CN(Cc3ccco3)c3nc4ccccc4nc32)c1,-26.8,3747,-8.6,-2.4,3.4,2.7,2.7
COc1ccc(CN(C(=O)c2ccco2)C2CC(C)N(C)CC2C)cc1 (centres undefined),-7.3,4360,3.3,-3.7,5.9,9.9,4.0
Fc1cccc(F)c1-n1c(CN2CCCC2)csc1=S,-8.2,1970,5.6,-2.6,-3.9,-5.5,4.9
CSc1nc(O)c(C(c2ccc(OC(C)C)cc2)c2c(O)nc(SC)[nH]c2=O)c(=O)[nH]1,-21.1,6168,2.4,-9.8,16.7,-4.0,2.7

# 9 structures from above, arranged by SMILES length, high to low.
SMILES,PrP 5UTR inh,Autofluor counter,ugtP null kill,BJeLR lethal,Mtb hypoxia inh,Mtb hypoxia inh growth,Sa RN4220 lethal
CSc1nc(O)c(C(c2ccc(OC(C)C)cc2)c2c(O)nc(SC)[nH]c2=O)c(=O)[nH]1,-21.1,6168,2.4,-9.8,16.7,-4.0,2.7
Cc1cccc(S(=O)(=O)N2CN(Cc3ccco3)c3nc4ccccc4nc32)c1,-26.8,3747,-8.6,-2.4,3.4,2.7,2.7
O=C(c1ccc2c(=O)n3c(nc2c1)CCCCC3)N1CCc2ccccc21,-22.1,4687,2.1,-5.5,3.6,1.6,2.3
COc1ccc(CN(C(=O)c2ccco2)C2CC(C)N(C)CC2C)cc1 (centres undefined),-7.3,4360,3.3,-3.7,5.9,9.9,4.0
CC(C)c1nnc(NC(=O)CCC(=O)NC2CCCCCCC2)s1,·,8032,0.4,-18.2,2.0,2.1,2.5
C=C(C)CN(CC)c1nc(N)c(C#N)c(CC#N)c1C#N,-19.7,20294*,1.3,1.6,5.4,15.1,3.6
CC(C)N(C(=O)COC(=O)c1ccc(O)cc1)C(C)C,-35.4,2772,1.4,5.0,·,·,2.3
Cc1ccccc1OCC(=O)Nc1nnc(C2CCCC2)s1,-4.1,5339,3.7,-0.6,-0.3,1.4,-0.1
Fc1cccc(F)c1-n1c(CN2CCCC2)csc1=S,-8.2,1970,5.6,-2.6,-3.9,-5.5,4.9

# The listing continues.
SMILES,PrP 5UTR inh,Autofluor counter,ugtP null kill,BJeLR lethal,Mtb hypoxia inh,Mtb hypoxia inh growth,Sa RN4220 lethal
Cc1cc(C)cc(N(CC(=O)NC2CC3CCC2C3)S(C)(=O)=O)c1 (centres undefined),-28.4,4341,-1.2,4.9,9.7,-0.6,-0.6
C/C(=N\NC(=O)CSCc1ccc([N+](=O)[O-])cc1)c1cccc(Br)c1,-7.7,2158,·,0.4,·,·,·
CC(C)NC(=O)[C@]1(C)CCC[C@@]2(C)C3CC[C@@]4(C)C[C@]3(CCC21)CC4=O (some centres undefined),-21.6,3994,3.2,·,13.2,9.4,6.9
CCCC[N+](CC#CCO)(CC#Cc1ccccc1)CCCC,-9.9,4151,-2.3,1.1,-3.7,-6.0,-0.1
COC(=O)c1cc(NCc2ccc3c(c2)OCO3)ccc1N1CCOCC1,-12.0,10917,7.2,-0.8,5.6,10.2,2.7
O=C(O)C1=CC(c2cccs2)CC(OCc2ccc(CO)cc2)O1 (centres undefined),·,·,1.7,·,17.8,13.3,4.0
COc1cc(C=NNC(=S)Nc2cccc(S(=O)(=O)N(C)C)c2)cc(OC)c1O,·,·,6.4,·,1.8,2.9,3.0
O=C1CN(C(=O)COC(=O)c2ccc[n+]([O-])c2)c2ccccc2N1,9.1,3495,3.9,-0.1,1.1,-3.9,3.4
COc1ccccc1N1CCN(C(=O)c2ccccc2N(C)S(=O)(=O)c2ccc(C)cc2)CC1,-12.3,?,2.4,6.4,1.5,2.9,3.3
O=[N+]([O-])c1cccc(CN2C(Cc3ccccc3)COCCS2(=O)=O)c1 (centres undefined),·,·,6.8,·,16.2,7.7,8.7

# Part of the list above, as tab-separated lines.
SMILES	PrP 5UTR inh	Autofluor counter	ugtP null kill	BJeLR lethal	Mtb hypoxia inh	Mtb hypoxia inh growth	Sa RN4220 lethal
CCCC[N+](CC#CCO)(CC#Cc1ccccc1)CCCC	-9.9	4151	-2.3	1.1	-3.7	-6.0	-0.1
O=[N+]([O-])c1cccc(CN2C(Cc3ccccc3)COCCS2(=O)=O)c1 (centres undefined)	·	·	6.8	·	16.2	7.7	8.7

# (further entries)
SMILES,PrP 5UTR inh,Autofluor counter,ugtP null kill,BJeLR lethal,Mtb hypoxia inh,Mtb hypoxia inh growth,Sa RN4220 lethal
O=C(CN1CCN(Cc2cccc(Cl)c2)C1=O)NCC1CCCO1 (centres undefined),-3.0,4933,6.6,-7.5,4.3,0.5,3.2
COc1ccc(S(=O)(=O)c2c(O)c3ccc(C(=O)Nc4ccccc4Cl)cc3[nH]c2=O)cc1,-7.2,5975,5.4,20.0,15.6,5.7,5.6
CC(C)(C)c1ccc(CCC2OCC(CN3CCOCC3)O2)cc1 (centres undefined),-34.0,4394,-3.0,-3.8,3.0,-1.7,2.7
Cc1ccc([C@@H]2CC=C(C(=O)O)[C@H](c3ccccc3F)N2S(=O)(=O)c2ccccc2C)cc1,-9.9,3628,-5.5,·,-4.9,2.4,26.9
CCN(Cc1ccccc1)C(c1cc2ccc(C)cc2[nH]c1=O)c1nnnn1CCOC (centres undefined),-20.6,?,-1.8,-4.1,16.1,0.0,1.5
CC(=NNC(=O)c1ccncc1)c1cccc(NC(=O)c2ccc(C(C)(C)C)cc2)c1,·,·,2.9,·,·,·,3.2
Cc1ccc(OCc2nc(C#N)c(N3CCN(Cc4ccccc4)CC3)o2)cc1,-19.9,5276,9.9,-7.3,21.2,10.1,2.5
Cc1nn(Cc2ccccc2Cl)c(C)c1C(=O)NC1CCCc2ccccc21 (centres undefined),6.3,2453,0.4,15.0,-6.6,7.9,-2.1
CSCCC(NS(=O)(=O)c1ccccc1F)C(=O)NCc1cccs1 (centres undefined),-6.5,4143,-3.0,·,5.0,8.6,-2.1
COc1ccc(NC(=O)CSc2ncccn2)cc1S(=O)(=O)N1CCCCC1,-6.8,3501,2.2,·,21.4,31.6,4.5
CCc1cccc(CC)c1NC(=O)C1CC(=O)N(c2ccc3c(c2)OCCO3)C1 (centres undefined),-4.3,3251,14.1,0.8,14.6,3.6,5.7
CC(SC1CCCC1)C(=O)Nc1ccnn1C(C)C (centres undefined),-16.1,20011*,-6.1,-6.7,6.5,10.4,5.1
Cc1nn(C(C)(C)C)c(NC(=O)c2ccc(Cl)cc2Cl)c1Br,-16.4,5830,7.2,-7.6,1.0,-1.0,14.0
COc1ccc(S(=O)(=O)N2c3ccccc3NC(=O)CC2C)cc1 (centres undefined),-2.5,4326,5.6,-8.4,-6.3,-11.5,0.4
CCCNC(=O)N1[C@H]2CC[C@@H]1C(C(=O)OC)=C(c1cc3ccccc3s1)C2,-32.2,3484,·,-12.3,·,·,·
CCCNC(=O)Cn1c(=O)n(CC(=O)N2CCCCC2)c(=O)c2sccc21,-27.4,4183,0.7,7.5,4.4,-0.8,0.9
NC1(N)OC(CN2C(=O)c3ccccc3C2=O)CS1 (centres undefined),-27.9,2063,-6.4,11.7,·,·,2.2
O=C1CSc2nc3ccccc3n21,-10.0,7432,-0.5,5.7,1.0,5.0,1.8
CCn1c(SCC(=O)Nc2ncc(C(F)(F)F)cc2Cl)nnc1-c1cccc(C)c1,-19.7,2357,3.0,-5.5,-3.5,0.0,2.8
COc1ccnc(Oc2ccc3ccccc3c2)c1C#N,-59.4,10821,-1.9,-2.3,11.6,6.5,8.0
Cc1ccc(C)c(-n2nnnc2SCC(=O)c2ccc3c(c2)NC(=O)CO3)c1,-0.2,8912,-6.7,-10.0,5.7,9.7,3.3
CC1(C)Cc2c(C#N)c(N)sc(=S)c2CO1,-14.8,4535,8.2,1.9,3.7,-0.6,2.6
COCCNC(=O)c1ccccc1NC(=O)c1cccc([N+](=O)[O-])c1C,-2.0,4242,6.0,-3.0,8.9,4.2,2.1
O=C(Nc1ccc(-c2nc3cccnc3s2)cc1)c1ccco1,0.7,4529,8.6,18.6,-2.7,2.8,9.8
CCc1ccc2[nH]c3nc(SCC(=O)NNC(=O)c4ccc(C(C)(C)C)cc4)nnc3c2c1,-22.7,5245,85.1*,-11.2,0.4,6.2,18.6
Cc1ccc(S(=O)(=O)N2CCN(C(=O)COC(=O)CNC(=O)c3ccccc3F)CC2)c(C)c1,8.4,5462,-3.2,·,-2.5,2.0,2.8
CC1CCN(C(=O)Cn2c3ccc(F)cc3c3nc4n(c(=O)c32)CCCS4)CC1,4.4,5441,3.3,0.1,10.0,8.4,-1.0
Cc1cc(C)n(CC(=O)NNC(=O)C2CC(=O)N(Cc3ccccc3Cl)C2)n1 (centres undefined),-11.0,5905,8.3,-3.1,4.2,3.4,1.2

# Screening data: PubChem BioAssay, several laboratories
